Source: PubChem (National Center for Advancing Translational Sciences (NCATS))
LASV entry inh – qHTS for Inhibitors of binding or entry into cells for Lassa Virus; Lassa virus pseudotype entry inhibition, cell reporter; control for the full effect not named in the record; Potency, µM (highest dose often 37.9 µM), for inactives: top-dose activity change, negative = inhibition, hits mostly inhibitors; 1.2% of 300,000 active; active means well fitted inhibition curve with a large enough effect; inconclusive means small, poorly fitted or top-dose-only effect, or effect the other way; inactive means flat fitted curve, though single readings scatter; tested in HEK293 cells; further: on the % scale 0 is the no-effect control and ±100 the full control effect; nearly all actives have a fitted effect of over 50% in size; luciferase read-out
2A StopGo – High Throughput Screening for Foot and Mouth Disease Virus Antivirals | 1.2% of 410,000 active | AID 1159524, 2015 | human cells with a luciferase reporter of 2A StopGo recoding; control for the full effect not named in the record | Potency, µM (highest dose often 57.9 µM), inactives show at the top dose signal change, negative = less light; active = well fitted falling curve with a large enough effect; inconclusive = small, poorly fitted or top-dose-only effect; inactive = no such curve, though single readings can be large or run the other way; tested in HEK293T cells; further: on the % scale 0 is the no-effect control and ±100 the full control effect; nearly all actives have a fitted effect of over 45% in size; luciferase light after 4 h
Marburg entry inh – qHTS for inhibitors of binding or entry into cells for Marburg Virus; Marburg virus pseudotyped entry inhibition, cell reporter; control for the full effect not named in the record; about a third of the inactives were read at about 46 µM; Potency, µM (series often up to 37.8 µM), for the others: top-dose activity change, negative = inhibition, actives largely listed as inhibitors; 1.8% of 300,000 active; AID 540276, 2011; active = well fitted inhibition curve with a large enough effect; inconclusive = small, poorly fitted or top-dose-only effect, or effect the other way; inactive = flat fitted curve, though single readings scatter; tested in HEK293 cells; about a fifth of its hits are not listed in these tables; further: on the % scale 0 is the no-effect control and ±100 the full control effect; luciferase read-out
Cruzain inh Det – qHTS Assay for Promiscuous and Specific Inhibitors of Cruzain (with detergent) | 0.43% of 200,000 active | Cruzipain (Trypanosoma cruzi), P25779 | AID 1478, 2009 | purified cruzain, Z-FR-AMC fluorescence, 0.01% Triton | Potency, µM, for inactives: max response, negative = inhibition, actives largely listed as inhibitors; active means well fitted curve in the direction sought with a large enough effect; inconclusive means small, poorly fitted or top-dose-only effect, or another doubt; inactive means no such curve, though single readings can be large; an effect the other way counts as inactive or inconclusive;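 further: plate controls were neutral wells for no effect and buffer without enzyme for full effect; nearly all actives have a fitted effect of over 40% in size; top concentration of the series not given in the record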
Target sequence (P25779 123-467 limits assumed): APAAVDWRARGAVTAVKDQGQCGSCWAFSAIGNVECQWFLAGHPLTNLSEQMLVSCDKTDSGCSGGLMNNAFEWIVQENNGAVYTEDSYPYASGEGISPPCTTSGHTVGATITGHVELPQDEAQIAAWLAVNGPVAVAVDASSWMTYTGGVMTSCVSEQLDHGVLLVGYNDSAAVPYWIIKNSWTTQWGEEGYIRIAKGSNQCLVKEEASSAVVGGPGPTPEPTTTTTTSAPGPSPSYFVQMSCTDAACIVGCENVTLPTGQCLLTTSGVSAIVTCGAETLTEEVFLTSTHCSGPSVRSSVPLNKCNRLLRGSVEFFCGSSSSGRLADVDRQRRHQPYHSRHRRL
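15 min RT preincubation of 1.5 nM cruzain with compound, then 2 uM Z-FR-AMC added; kinetic AMC fluorescence, 60 s delta. Triton X-100 0.01%, pH 5.5.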
SARS PLpro yeast – qHTS of Yeast-based Assay for SARS-CoV PLP; S. cerevisiae expressing SARS-CoV PLpro, growth rescue; control for the full effect not named in the record; 0.19% of 330,000 active; AID 485353, 2010; Potency, µM (series often up to 32.9 µM), for the others: at the top dose activity, positive = growth rescue; further: 0% is about no effect; nearly all actives have a fitted effect of over 55% in size; growth read by luminescence after 48 h
NS1 function inh – qHTS Assay for Inhibitors of Influenza NS1 Protein Function | S. cerevisiae slowed by influenza A NS1, growth recovery by OD600 | Potency, µM (highest dose often 46.1 µM), for inactives: top-dose activity, positive = more growth | 0.4% of 270,000 active | AID 2326, 2010; further: actives are rising curves; nearly all actives have a fitted effect of over 50% in size
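Recovery from NS1-induced slow growth read by OD600 in budding yeast switched to galactose assay medium (pH 6.0, -URA) at 1:100 dilution. Compound 23 nl per well; the matching strain lacking NS1 serves as control.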
Cruzain noTriton – qHTS Assay for Promiscuous and Specific Inhibitors of Cruzain (without detergent); 2.3% of 200,000 active; Potency, µM, inactives show max response, negative = inhibition, hits mostly inhibitors; AID 1476, 2009; purified cruzain, Z-FR-AMC fluorescence, no detergent; active means well fitted curve in the direction sought with a large enough effect; inconclusive means small, poorly fitted or top-dose-only effect, or another doubt; inactive means no such curve, though single readings can be large; an effect the other way counts as inactive or inconclusive;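 further: plate controls were enzyme without inhibitor for no effect and buffer without enzyme for full effect; nearly all actives have a fitted effect of over 40% in size; top concentration of the series not given in the record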
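Detergent-free condition (0.00005% Triton X-100) in acetate buffer pH 5.5 with DTT. 1.5 nM enzyme and compound were pre-mixed 15 min, then 2 uM Z-FR-AMC substrate added; reaction progress from fluorescence change between first and third reads (60 s).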
RE007 growth inh – qHTS Assay for Inhibitors of the HIV-1 protein Vpr; S. pombe RE007 Vpr strain, BacTiter-Glo ATP luminescence, 24 h; control for the full effect not named in the record; Potency, µM (top dose mostly 92.2 µM), for the others: at the top dose activity change, negative = less growth; 0.21% of 360,000 active; active = well fitted falling curve with a large enough effect; inconclusive = small, poorly fitted or top-dose-only effect; inactive = no such curve, though single readings can be large or run the other way;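 further: on the % scale 0 is the no-effect control and ±100 the full control effect; nearly all actives have a fitted effect of over 50% in size; the assay follows cell death caused by Vpr and the record does not say whether a fall means rescue or toxicity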
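Fission yeast strain RE007, carrying one chromosomally integrated HIV-1 vpr copy, was seeded at OD 0.01 in PMG+AL medium with 23 nL pinned compound. After 24 h at 30 °C and 99% humidity, viability was read by BacTiter-Glo luminescence.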
Starred values were filed as active, the others as inactive; ? = inconclusive; · = no result given; [ ] = another dose, or the depositor's remark. Unless noted, the call rests on the fitted dose curve; in most records, active means well fitted rising curve with a large enough effect; inconclusive means small, poorly fitted or top-dose-only effect; inactive means no such curve, though single readings can be large or run the other way. Potency means the concentration at half of the fitted maximal effect.

Order of results: RE007 growth inh	Cruzain noTriton	Cruzain inh Det	Marburg entry inh	2A StopGo	LASV entry inh	SARS PLpro yeast	NS1 function inh
COc1ccc(C(=O)CC(=O)C(=O)Nc2ccc(OC)c(Cl)c2)cc1
    -13%	·	·	4%	-10%	0%	2%	0%
CC(NC(N)=O)C(=O)Nc1ccc(Cl)c(S(=O)(=O)Nc2ccc(Br)cc2)c1 (stereo not given)
    9%	·	·	7%[46.1 µM]	29%	8%[46.1 µM]	1%	·
COc1ccc(-c2cc(C(=O)Nc3sc4c(c3C#N)CCCC4)c3ccccc3n2)cc1
    2%	7.9µM*	-4.6%	?	1%	0%	12%	6%
CCOC(=O)c1sc2ccccc2c1OC(=O)c1ccc(C)cc1
    -1%	-2%	-6.3%	-26%	15%	4.5µM*	-7%	1%
CCOc1ccc(S(=O)(=O)N2CCCC(C(=O)N3CCOCC3)C2)cc1 (stereo not given)
    -8%	·	·	1%[46.1 µM]	-7%	-24%	4%	2%
Cc1cccc(C)c1NC(=S)N(CCN(C)C)Cc1cccs1
    11%	·	·	?	-21%	0%	0%	·
COc1ccc(N(CC(=O)N2CCc3ccccc3C2)S(=O)(=O)c2c(C)[nH]c(=O)[nH]c2=O)cc1
    14%	1%	3.1%	·	-16%	·	-11%	-4%
COc1ccc(C2=CC(c3ccccc3Cl)n3nc(-c4ccc(Cl)cc4)nc3N2)cc1 (stereo not given)
    ·	-5%	-4.3%	9%[46.1 µM]	-9%	-3%[46.1 µM]	·	·
Cc1cc(C)c(OCC(=O)Nc2ccc3c(c2)OCO3)cc1C
    -12%	-9%	6.0%	7%	48%[activator]	?	-3%	2%
CC(C(=O)Nc1cc([N+](=O)[O-])ccc1Cl)N1CCN(c2ccccc2O)CC1 (stereo not given)
    -9%	0%	-5.9%	?	-22%	?	-8%	-4%
O=C(N/N=C/c1cccc2cccnc12)[C@H]1C[C@@H]1c1ccccc1
    5%	·	·	?	-12%	?	-2%	-34%
COC(=O)Cn1c(C(O)c2ccccc2)nc2ccccc21 (stereo not given)
    4%	·	·	·	22%	·	12%	2%
COc1ccc(-c2cc3ccc(OCC(=O)NCC4CCC(C(=O)O)CC4)cc3oc2=O)cc1 (stereo not given)
    2%	·	·	·	27%	·	?	8%
CSCCOC(=O)c1[nH]c2c(c1C)C(=O)CC(c1ccco1)C2 (stereo not given)
    6%	10%	-8.1%	·	?	·	-1%	0%
Cc1ccc(C(=O)c2c[nH]cc2-c2ccccc2)cc1
    15%	12%	-5.2%	-2%	5%	21%	1%	-17%
COc1ccccc1CC(=O)NC1CCC(C)CC1 (stereo not given)
    -1%	·	·	-5%[46.1 µM]	22%	30%[46.1 µM]	0%	·
O=C(c1ccccc1)c1ccc(Sc2ccc([N+](=O)[O-])cc2)cc1
    12%	·	·	·	0%	·	1%	2%
Cc1noc(C)c1S(=O)(=O)N1CCCC(C(=O)NCc2ccccn2)C1 (stereo not given)
    4%	15%	5.5%	18%	12%	10%	0%	0%
CC(OC(=O)c1ccccc1NCCO)C(=O)Nc1ccc(S(=O)(=O)N2CCOCC2)cc1 (stereo not given)
    -8%	·	·	-21%[46.1 µM]	-17%	6%	3%	·
CCOc1ccc(C(=O)NCC(=O)OCC(=O)Nc2ccccc2OCC)cc1
    18%	-7%	-26%	-1%[46.1 µM]	9%	-6%	-4%	-6%
Cc1nc2c(cnn2-c2ccc(Cl)cc2)c(=O)n1-c1ccc(N2CCC(C)CC2)cc1
    ·	-1%	-0.1%	0%	·	·	9%	6%
COCc1ccc(C(=O)N2CCCC(CNC(=O)c3ccc(F)cc3)C2)o1 (stereo not given)
    -15%	·	·	29%	-7%	20%	0%	6%
COc1cccc2c1CCC(NC(C)=O)C2=O (stereo not given)
    8%	-2%	-3.7%	2%	-2%	1%	-3%	-3%
CCc1cc(=O)oc2c(C)c(OCC(=O)NCc3ccccn3)ccc12
    11%	·	·	·	-9%	·	4%	5%
O=C(CN(C(=O)CNS(=O)(=O)c1ccccc1)C1CCCC1)NCC1CCCO1 (stereo not given)
    12%	7%	0.5%	-2%	-11%	23%	5%	-2%
N#Cc1c(-c2ccccc2)ccnc1N1CCOCC1
    12%	·	·	1%[46.1 µM]	21%	2%	1%	7%
CN(CCOc1ccc(Br)cc1)C(=O)CNC(=O)c1ccc2ccccc2c1
    -19%	·	·	?	-26%	-18%[46.1 µM]	-36%	-25%
O=[N+]([O-])c1ccc(N2CCN(S(=O)(=O)c3ccc(Cl)c(Cl)c3)CC2)cc1NCCN1CCOCC1
    9%	6%	-5.0%	?	-20%	15%	22%	5%
c1csc(CNc2nc3ccccc3n2CCN2CCOCC2)c1
    -5%	1%	3.1%	-4%	-11%	1%	4%	0%
COc1ccc(CNC(=O)CCc2cc(OC)c(OC)c(OC)c2)cc1
    -10%	·	·	·	-1%	·	1%	2%

An excerpt from above in order of length of the SMILES, lowest first.
Order of results: RE007 growth inh	Cruzain noTriton	Cruzain inh Det	Marburg entry inh	2A StopGo	LASV entry inh	SARS PLpro yeast	NS1 function inh
N#Cc1c(-c2ccccc2)ccnc1N1CCOCC1
    12%	·	·	1%[46.1 µM]	21%	2%	1%	7%
c1csc(CNc2nc3ccccc3n2CCN2CCOCC2)c1
    -5%	1%	3.1%	-4%	-11%	1%	4%	0%
Cc1ccc(C(=O)c2c[nH]cc2-c2ccccc2)cc1
    15%	12%	-5.2%	-2%	5%	21%	1%	-17%
Cc1cccc(C)c1NC(=S)N(CCN(C)C)Cc1cccs1
    11%	·	·	?	-21%	0%	0%	·
Cc1cc(C)c(OCC(=O)Nc2ccc3c(c2)OCO3)cc1C
    -12%	-9%	6.0%	7%	48%[activator]	?	-3%	2%
CN(CCOc1ccc(Br)cc1)C(=O)CNC(=O)c1ccc2ccccc2c1
    -19%	·	·	?	-26%	-18%[46.1 µM]	-36%	-25%
O=C(N/N=C/c1cccc2cccnc12)[C@H]1C[C@@H]1c1ccccc1
    5%	·	·	?	-12%	?	-2%	-34%
CC(NC(N)=O)C(=O)Nc1ccc(Cl)c(S(=O)(=O)Nc2ccc(Br)cc2)c1 (stereo not given)
    9%	·	·	7%[46.1 µM]	29%	8%[46.1 µM]	1%	·
Cc1nc2c(cnn2-c2ccc(Cl)cc2)c(=O)n1-c1ccc(N2CCC(C)CC2)cc1
    ·	-1%	-0.1%	0%	·	·	9%	6%

Remaining list, next part:
Order of results: RE007 growth inh	Cruzain noTriton	Cruzain inh Det	Marburg entry inh	2A StopGo	LASV entry inh	SARS PLpro yeast	NS1 function inh
O=[N+]([O-])c1ccc(N=NN(CCO)CCO)cc1
    13%	1%	-10.0%	8%	-1%	6%	0%	3%
CCC(Sc1nc2ccncc2[nH]1)C(=O)Nc1ccc(F)cc1 (stereo not given)
    ·	9%	-10%	?	-30%	9%[46.1 µM]	·	·
CCOC(=O)c1c(S(=O)(=O)NCC(=O)Nc2cccc(F)c2)c(C)n(C)c1C
    -3%	·	·	·	31%[activator]	·	2%	2%
NS(=O)(=O)c1cccc(NC(=O)COC(=O)CN2C(=O)c3ccccc3C2=O)c1
    10%	·	·	-6%	-9%	-3%	5%	·
O=C(COC(=O)c1cccc([N+](=O)[O-])c1)Nc1ncc(Br)s1
    5%	·	·	-20%[46.1 µM]	-1%	18%[46.1 µM]	-5%	·
Cc1onc(-c2ccccc2)c1C(=O)N1CCN(S(=O)(=O)c2ccc(Cl)cc2)CC1
    -5%	·	·	-19%[46.1 µM]	-12%	-22%	0%	-5%
CC(Sc1nnc(-c2ccco2)o1)C(=O)Nc1ccc(OC(F)F)cc1 (stereo not given)
    -4%	·	·	0%	4%	3%	-11%	·
CCCCN1C(=O)C(NC(=O)C2CC2)(C(F)(F)F)C2=C1CC(C)(C)CC2=O (stereo not given)
    -4%	-3%	2.5%	?	-21%	2%	-2%	10%
S=C1NC(c2ccccc2)=NCN1c1ccc(Br)cc1
    -7%	-9%	-0.4%	-10%	·	13%	?	-5%
CC(=O)C1=C(C)Nc2ncnn2C1c1ccc(Cl)cc1Cl (stereo not given)
    -19%	-4%	-1.6%	?	?	-4%	17%	?
COC(=O)c1ccccc1NC(=O)CSc1nnc(-c2ccoc2C)n1C
    10%	6%	3.0%	12%	-8%	2%	-1%	-1%
O=C(Nc1cccc(Cl)c1)c1cccnn1
    -9%	·	·	?	30%	4%	0%	-2%
Cc1nnc(SC(C)C(=O)Nc2ccc(S(=O)(=O)N3CCCCC3)cc2)s1 (stereo not given)
    4%	-7%	1.1%	8%	-5%	?	-4%	-5%
CC(=O)N(c1ccccc1)c1nnc(-c2cnc(C)cn2)s1
    -7%	·	·	?	71%[activator]	1%	1%	1%
O=c1[nH]nc(SCCS(=O)(=O)c2ccc(F)cc2)n1-c1ccccc1
    ?	·	·	-25%	?	-24%	0%	4%
Cc1ccc(NC(=O)Cn2c(-c3nonc3N)nc3ccccc32)cc1Cl
    ·	7.9µM*	-0.3%	?	-9%	?	·	·
Cc1cc(NC(=O)CN2CCCC2c2nc3ccccc3s2)no1 (stereo not given)
    -8%	8%	0.8%	-10%	9%	-15%	4%	-11%
Cc1ccnc(NC(=O)c2cccc(S(=O)(=O)NCc3ccccc3)c2)c1
    -7%	·	·	22%	50%[activator]	-4%[46.1 µM]	4%	·

Individual results from the entries so far:
Cc1onc(-c2ccccc2)c1C(=O)N1CCN(S(=O)(=O)c2ccc(Cl)cc2)CC1 in NS1 function inh = -5%
CC(=O)C1=C(C)Nc2ncnn2C1c1ccc(Cl)cc1Cl (stereo not given) in Cruzain noTriton = -4%
